Cruzain inh noDet: qHTS Assay for Promiscuous and Specific Inhibitors of Cruzain (without detergent); actives 2.3% (n = 200,000); Potency, µM, inactives show max response, negative = inhibition, usual class: inhibitors; AID 1476, 2009; purified cruzain, Z-FR-AMC fluorescence, no detergent;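 note: plate controls were enzyme without inhibitor for no effect and buffer without enzyme for full effect; nearly all actives have a fitted effect of over 40% in size; top concentration of the series not given in the record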
Target sequence (P25779 123-467 limits assumed): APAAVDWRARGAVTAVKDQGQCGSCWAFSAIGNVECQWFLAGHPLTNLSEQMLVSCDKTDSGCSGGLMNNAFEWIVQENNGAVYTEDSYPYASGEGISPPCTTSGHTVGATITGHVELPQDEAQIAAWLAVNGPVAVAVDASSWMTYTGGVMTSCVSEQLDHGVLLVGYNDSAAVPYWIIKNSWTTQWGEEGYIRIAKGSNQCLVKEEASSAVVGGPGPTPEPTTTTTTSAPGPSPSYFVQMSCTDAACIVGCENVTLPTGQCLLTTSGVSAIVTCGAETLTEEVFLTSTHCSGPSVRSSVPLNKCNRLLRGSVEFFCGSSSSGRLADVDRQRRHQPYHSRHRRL
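Detergent-free condition (0.00005% Triton X-100) in acetate buffer pH 5.5 with DTT. 1.5 nM enzyme and compound were pre-mixed 15 min, then 2 uM Z-FR-AMC substrate added; reaction progress from fluorescence change between first and third reads (60 s).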
NS1 inh: qHTS Assay for Inhibitors of Influenza NS1 Protein Function. S. cerevisiae slowed by influenza A NS1, growth recovery by OD600. Potency, µM (top dose mostly 46.1 µM), for inactives: top-dose activity, positive = more growth. actives 0.4% (n = 270,000). AID 2326, 2010; active means well fitted rising curve with a large enough effect; inconclusive means small, poorly fitted or top-dose-only effect; inactive means no such curve, though single readings can be large or run the other way; note: nearly all actives have a fitted effect of over 50% in size
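S. cerevisiae expressing influenza A NS1, grown in glucose, washed, then diluted 1:100 into pH 6.0 -URA galactose medium with 23 nl compound. Growth recovery read as OD600; NS1-free strain serves as control.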
Cruzain inh Det: qHTS Assay for Promiscuous and Specific Inhibitors of Cruzain (with detergent). purified cruzain, Z-FR-AMC fluorescence, 0.01% Triton. Potency, µM, for inactives: max response, negative = inhibition, most hits filed as inhibitors. Cruzipain (Trypanosoma cruzi), P25779. actives 0.43% (n = 200,000);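 note: plate controls were neutral wells for no effect and buffer without enzyme for full effect; nearly all actives have a fitted effect of over 40% in size; top concentration of the series not given in the record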
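Z-FR-AMC hydrolysis (2 uM substrate) by cruzain (1.5 nM) monitored kinetically at ex 360/em 450 nm after 15 min room-temperature compound exposure; 0.01% Triton X-100, pH 5.5, 5 mM DTT.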
Active calls of the source: *; u = inconclusive; & = joins results of further samples. Unless noted, calls come from the whole dose curve; as a rule, active = well fitted curve in the direction sought with a large enough effect; inconclusive = small, poorly fitted or top-dose-only effect, or another doubt; inactive = no such curve, though single readings can be large; an effect the other way counts as inactive or inconclusive. Potency is the fitted concentration of half-maximal effect. These rows are one share of the data. The share of hits here may be higher or lower than overall.

SMILES	Cruzain inh noDet	NS1 inh	Cruzain inh Det
NC(N)=NC(N)=Nc1ccccc1 (tested in a mixture with another compound)	4.3%	-1.4%	1.0%
COc1ccc2c(c1)CN([C@H](C)[C@@H]1CC[C@@H]3[C@H]4CC[C@H]5C[C@@H](O)CC[C@@]5(C)[C@H]4CC[C@]31C)CO2	15.4%	-30.9%	-2.6%
Nc1c(C(=O)Nc2ccc([As](=O)(O)O)cc2)cnc2nnnn12	-1.0%	-5.4%	3.0%
CCOC(=O)Nc1nc(-c2ccccc2)c(C)s1	1.9%	-12.8%	4.2%
C[C@@]12CC[C@@H]3[C@H](CCC4=CC(=O)CC[C@]43C)[C@@H]1CC[C@@H]2C(=O)COS(=O)(=O)c1ccc(Br)cc1	7.3%	-2.8%	1.3%
CC[C@H](CN(C)C)C(=O)c1ccco1	3.6%	-3.9%	3.6%
C[C@@H]1O[C@@H](O)[C@@H](O)[C@H](O)[C@H]1O	4.0%	-2.8%	-1.0%
CC(C)(C)c1ccc(O)c(CN(Cc2cc(C(C)(C)C)ccc2O)c2ccccc2)c1	5.1%	2.6%	-2.7%
N[C@@H](CCCCO)C(=O)O	0.1%	0.0%	-3.1%
Oc1ccccc1C(Sc1nc2ccccc2s1)Sc1nc2ccccc2s1	-1.0%	-50.5%	-5.0%
NCc1nnn(Cc2ccccc2)c1N	5.0%	-0.7%	-5.5%
C[C@@H](N=C(N)N)C(=O)O	-5.6%	-2.8%	2.1%
CN(C)CCCn1c2ccccc2c2cnccc21	6.0%	-4.5%	-0.2%
O=C(O)c1cc(C(=O)C(=O)c2cc(C(=O)O)c(O)c3ccccc23)c2ccccc2c1O	-9.2%	-0.8%	-13.8%
Cc1ccc(N=Nc2c(O)c(S(=O)(=O)O)cc3cc(S(=O)(=O)O)ccc23)c(C)c1	-8.9%	-3.1%	-2.2%
CC(=O)NC1=C(OS(=O)(=O)c2ccc(C)cc2)CN(C)C1=O	2.0%	-5.6%	-3.5%
O=C(O)C/C(=C\c1ccco1)C(=O)O	-11.9%	-0.7%	1.4%
NS(=O)(=O)c1cc(C(=O)O)c(O)c2ccccc12	2.7%	11.1%	2.6%
Cc1ccc2nc(-c3ccc(N4C(=O)CC(N5CCCC(C)C5)C4=O)cc3)sc2c1 (stereo not drawn)	-4.2%	-10.4%	-1.1%
[N-]=[N+]=CC(=O)COC(=O)c1ccccc1	-13.6%	-5.9%	-2.2%
CN(CCC(=O)O)C1=Nc2ccc(Cl)cc2C(c2ccccc2)=[N+]([O-])C1	2.6%	-2.7%	2.4%
Nc1ccc(S(=O)(=O)NCCS(=O)(=O)O)cc1	8.6%	0.0%	5.7%
O=C1NC(=O)[C@@](Cc2ccccc2)(c2cccnc2)N1	4.2%	2.8%	3.3%
O=S(=O)(O)c1ccc(O)c2ncccc12.O=S(=O)(O)c1ccc(O)c2ncccc12.[Zn]	3.16µM*	-17.0%	u
O=C(O)[C@@H]1Cc2c([nH]c3ccccc23)[C@@H](CCCCO)N1	6.6%	0.0%	4.1%
O=C(O)[C@H](CCc1ccccc1)N1C(=O)c2ccccc2C1=O	3.3%	1.4%	3.4%
NC(N)=N/N=C\c1ccc(C2CCNCC2)cc1	1.2%	-1.0%	2.3%
C[N+]1(C)CCc2cc(O)c(O)cc2[C@H]1Cc1ccc(O)c(O)c1	-6.4%	-0.5%	-3.7%
O=C(O)c1ccc(OCc2ccccc2)c(Cl)c1	1.5%	-30.3%	0.3%
O=C(O)CCNCC(=O)O	3.2%	1.1%	0.1%
c1ccc(C(c2cccc3c2ccc2ccccc23)[C@H](c2ccccc2)c2cccc3c2ccc2ccccc23)cc1 (stereo partly drawn)	3.98µM*	7.8%	2.0%
N#CC(C#N)=CNCCN1CCN(C=C(C#N)C#N)CC1	8.7%	2.8%	3.6%
O=C(O)c1cccc(OCCO)c1	1.0%	8.7%	1.2%
O=C1COC(c2ccccc2O)=NN1CCCN1CCCC1	-3.6%	0.0%	2.9%
COc1cccc2c1[C@H](CO)N1[C@H](C#N)[C@@H]3C[C@H](C(=O)O)[C@@H]([C@@H]1C2)N3C	-1.3%	0.0%	0.2%
Cc1ccc(C)c([C@@H]2NC(=O)c3ccccc3N2)c1	-0.1%	-0.7%	5.2%
O[C@H](CN1CC1)[C@@H](O)CN1CC1	1.7%	-5.2%	0.5%
O=c1[nH][nH]c(=S)c(=O)[nH]1	4.2%	0.4%	7.8%
Cc1ncc([N+](=O)[O-])n1CCN=[N+]=[N-]	-8.4%	0.0%	0.5%
CN(C)CCC[C@@H]1c2ccccc2Oc2ccc(C(F)(F)F)cc21	-3.1%	-8.1%	0.4%

In another format: 3 of the compounds above.
molecule | Cruzain inh noDet | NS1 inh | Cruzain inh Det
CN(C)CCC[C@@H]1c2ccccc2Oc2ccc(C(F)(F)F)cc21 | -3.1% | -8.1% | 0.4%
N#CC(C#N)=CNCCN1CCN(C=C(C#N)C#N)CC1 | 8.7% | 2.8% | 3.6%
Cc1ccc(C)c([C@@H]2NC(=O)c3ccccc3N2)c1 | -0.1% | -0.7% | 5.2%

Following part.
SMILES	Cruzain inh noDet	NS1 inh	Cruzain inh Det
C[C@H](Oc1ccc(Oc2cnc3ccc(Cl)cc3n2)cc1)C(=O)O	0.8%	-7.9%	1.5%
Cc1ccc(S(=O)(=O)N[C@H](CO)C(=O)O)cc1	4.4%	-8.3%	1.6%
N=C(N)SCc1ccc(Cl)c2ccccc12 (tested in a mixture with another compound)	-3.7%&-3.8%	-46.7%&-36.9%	0.9%&0.1%
CC[C@]1(OC(=O)CN)C(=O)OCc2c1cc1n(c2=O)Cc2cc3ccccc3nc2-1	3.6%	-10.6%	-2.2%
C[N+](C)(C)CC(=O)N/N=C\c1ccncc1	-5.4%	-0.7%	0.7%
O=C(O)CNC(=O)c1ccccc1O	2.6%	8.3%	2.1%
CC1=CC(=O)CC(C)(C)[C@]1(O)/C=C\C(C)=C\C(=O)O	3.8%	-2.8%	6.2%
O=C(O)[C@H](Cc1ccccc1)N1C(=O)c2ccccc2C1=O	5.6%	1.4%	3.1%
CCCCNN	4.6%	-2.8%	2.0%
O=C(O)c1cc(N=Cc2ccccc2O)cc(C(=O)O)c1	2.5%	3.1%	0.9%
N#Cc1c(NC(=O)C(F)(F)F)sc2c3c(=O)c4ccccc4c(=O)c=3oc3ccccc3c12	-14.1%	-1.7%	4.9%
Cn1c(=O)c2[nH]c(CCCCC(=O)O)nc2n(C)c1=O	4.2%	-1.0%	4.3%
O=C(Nc1ccc([As](=O)(O)O)cc1)Nc1cccc(Cl)c1Cl	-10.3%	2.1%	-1.4%
Clc1ccc(C=Nc2ccc3c(c2)Cc2ccccc2-3)c(Cl)c1	-0.8%	-3.8%	-0.4%
O=C(O)[C@H](Cc1cnc[nH]1)N1C(=O)c2ccccc2C1=O	-5.5%	-1.0%	2.9%
CC1CCC(C(=O)O)([C@H](Br)C(=O)O)CC1 (stereo partly drawn)	0.9%	5.2%	3.2%
N#CCCCC[N+]12CN3CN(CN(C3)C1)C2	2.2%	0.0%	1.2%
NCCC1([N+](=O)[O-])CCNCC1	6.9%	-5.2%	-6.5%
O=C(O)C[C@H](Cc1ccccc1)C(=O)O	0.3%	-2.8%	3.2%
OCCN(CO)CO	-0.5%	-3.8%	3.4%
CC(C)c1ccc(/C=C2\C=C(c3ccc4ccccc4c3)OC2=O)cc1	-10.6%	-11.1%	1.2%
Nc1nc(SC/C=C\c2ccccc2)c2[nH]cnc2n1	-8.0%	0.0%	-1.2%
NC(N)=N/N=C(\c1ccc(Cl)cc1)C1CC1	-6.1%	-9.0%	2.1%
c1ccc(CCCNc2nnnc3ccccc23)cc1	-5.1%	-6.6%	2.0%
CC(C)CCC[C@@H](C)[C@@H]1CC[C@@H]2[C@H]3CC[C@H]4C[C@@H](N)CC[C@@]4(C)[C@@H]3CC[C@]21C	6.6%	-33.0%	-1.6%
CO[C@H]1[C@H](O)[C@H](O[C@@H]2[C@H](Oc3cccc4c(O)c5c(=O)oc6ccc(C)c7c(=O)oc(c34)c5c67)O[C@@H](C)[C@H](O)[C@H]2O)O[C@@H](C)[C@@H]1O	4.2%	-5.4%	5.3%
N=C(N)SCc1ccc(Cl)cc1Cl (tested in a mixture with another compound)	-4.1%	-20.3%	1.5%
O=C(Nc1ccc(Nc2ccc3c(c2)C(=O)c2ccccc2C3=O)c2c1C(=O)c1ccccc1C2=O)c1ccccc1	10.9%	0.0%	2.2%
O=S(=O)(O)c1ccc2c(N=Nc3c(O)ccc4ccccc34)cccc2c1	24.2%	0.0%	-11.7%
O=C(O)C[C@H](Nc1ccccc1)C(=O)O	-3.2%	-8.3%	0.4%
CN(C)S(=O)(=O)c1ccc(Nc2ccc(O)c3c2C(=O)c2c([N+](=O)[O-])ccc(O)c2C3=O)cc1	-2.1%	-0.5%	2.1%
O=c1[nH]cc(CS(=O)(=O)Cc2c[nH]c(=O)[nH]c2=O)c(=O)[nH]1	0.6%	1.4%	2.1%
N#Cc1ccc(OC(=O)c2ccc(N=C(N)N)cc2)cc1	-0.9%	-0.3%	1.2%
CCN=C(N)CSS(=O)(=O)O	-2.0%	-1.7%	2.5%
O=C(O)c1ccc(N[C@H](c2ccccc2)c2ccc3cccnc3c2O)cc1	-7.1%	-4.5%	0.7%
O=C1c2ccccc2N[C@H](c2cc(Cl)cc(Cl)c2O)N1CCc1ccccn1	-4.4%	-8.2%	7.4%
O=C1Nc2ccccc2C1=Nc1cccc2ncccc12	8.9%	-1.4%	-0.7%
Cc1ccc(C)c(NC(=O)NCc2ccc(Cl)cc2)c1	-5.7%	-1.0%	0.0%
CCc1c(O)c2c(c(O)c1C(C)=O)C(=O)c1c(cc(O)c(C(=O)O)c1C(=O)O)C2=O	-5.9%	5.0%	-6.0%
CC1CCC(O)([C@](C)(C(=O)O)c2ccccc2)CC1 (stereo partly drawn)	8.4%	-1.0%	-2.8%

Taken from the results shown (three entries):
SMILES	Cruzain inh noDet	NS1 inh	Cruzain inh Det
CN(C)S(=O)(=O)c1ccc(Nc2ccc(O)c3c2C(=O)c2c([N+](=O)[O-])ccc(O)c2C3=O)cc1	-2.1%	-0.5%	2.1%
O=c1[nH]cc(CS(=O)(=O)Cc2c[nH]c(=O)[nH]c2=O)c(=O)[nH]1	0.6%	1.4%	2.1%
N#Cc1ccc(OC(=O)c2ccc(N=C(N)N)cc2)cc1	-0.9%	-0.3%	1.2%

Additional records.
SMILES	Cruzain inh noDet	NS1 inh	Cruzain inh Det
COc1cc(C)cc2c(-c3c(O)cc(O)c4c3C[C@H](C)N[C@@H]4C)cc(-c3cc(-c4c(O)cc(O)c5c4C[C@H](C)N[C@@H]5C)c4cc(C)cc(OC)c4c3O)c(O)c12	-13.9%	7.94µM*	-2.9%
CN1CCN(c2ccc3nc(-c4ccc5nc(-c6ccc(O)cc6)[nH]c5c4)[nH]c3c2)CC1	-1.9%	-42.7%	-7.5%
NC(=O)/N=C(\N)NC(=O)c1ccccc1	5.7%	-2.8%	-1.4%
O=C(O)c1cc(=O)[nH]c(=S)[nH]1	-1.4%	0.0%	-0.6%
C[C@@H](CS(=O)(=O)Cc1ccccc1)C(N)=O	3.4%	-2.8%	1.6%
C[N+](C)([O-])CCC=C1c2ccccc2CCc2ccccc21	-4.4%	-10.8%	2.2%
O=C(O)CCCSc1nc2ccccc2s1	-0.5%	0.0%	1.3%
Cc1ccc(S(=O)(=O)O[C@H]2CN3CCC2CC3)cc1	5.8%	0.0%	0.9%
NCCSS(=O)(=O)CCN	3.9%	3.5%	3.2%
NC[C@H]1O[C@H](n2cnc3c(N)ncnc32)C[C@@H]1O	6.8%	-3.5%	0.2%
N/N=C1/c2ccccc2N[C@H]1OC(=O)Nc1cccc(Cl)c1	-5.1%	-44.4%	2.3%
COc1cc(NCCC(=O)O)c2ncccc2c1	5.2%	0.7%	1.2%
O=C(CSc1nc2ccccc2s1)c1sc2sc3ccccc3[n+]2c1O	1.8%	2.2%	-20.2%
C[C@@H]1CCCC(CC(=O)O)(CC(=O)O)C1	12.7%	0.7%	1.9%
c1cc2c(cc1C(N1CCNCC1)N1CCNCC1)OCO2	-2.0%	-8.3%	4.5%
C[N+]1(CCN=C=NC2CCCCC2)CCOCC1	4.3%	-5.6%	0.5%
O=C(O)[C@@H]1[C@@H](C(=O)NCc2ccccn2)[C@@H]2C=C[C@@H]1O2	0.8%	-1.4%	3.5%
COc1ccc(C[C@@H]2C(=O)N[C@H](C)C(=O)N(C)[C@@H]3C(=O)N(C)[C@@H](Cc4ccc(O)c(c4)Oc4ccc(cc4)[C@H]3O)C(=O)N[C@@H](C)C(=O)N[C@H](C)C(=O)N2C)cc1	u	0.0%	-3.2%
NC(N)=NNC(=O)C(=O)O	-0.2%	12.8%	-0.6%
C[C@H](Br)C(=O)N[C@H](CO)C(=O)O	-2.7%	0.0%	1.5%
O=C(O)c1cc(C(=O)O)cc(N2C(=O)c3ccccc3C2=O)c1	-5.6%	-2.7%	4.8%
